MbtI inh: inhibitors of Mycobacterium tuberculosis siderophore enzyme MbtI. purified MbtI enzyme, fluorescence intensity read-out. P9WFX0. inhibition, %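 (about 17 µg/mL by stock and volumes)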. 100,000 tested, 0.89% active;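 active = above 50% in both replicates, above 80% if mildly self-fluorescent; inactive = the rest, strongly fluorescent compounds included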;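 note: 0% = mean of negative and 100% = mean of positive controls; one replicate is shown; some compounds called inactive have numbers as strong as hits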
Target sequence (P9WFX0 whole entry, looked up): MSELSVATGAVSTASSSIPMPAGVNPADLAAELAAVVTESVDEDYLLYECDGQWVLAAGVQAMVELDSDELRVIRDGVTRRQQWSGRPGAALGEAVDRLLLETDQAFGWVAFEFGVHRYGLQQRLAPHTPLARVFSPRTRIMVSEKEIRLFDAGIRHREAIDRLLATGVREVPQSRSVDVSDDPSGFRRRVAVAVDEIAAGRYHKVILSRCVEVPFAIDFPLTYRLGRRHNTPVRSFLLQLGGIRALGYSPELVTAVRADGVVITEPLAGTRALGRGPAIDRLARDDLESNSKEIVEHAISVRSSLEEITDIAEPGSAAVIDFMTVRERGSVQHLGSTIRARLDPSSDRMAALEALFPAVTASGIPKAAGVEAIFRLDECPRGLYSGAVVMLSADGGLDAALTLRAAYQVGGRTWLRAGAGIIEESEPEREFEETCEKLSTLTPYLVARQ
Mtb MenB inh: inhibitors of Mycobacterium tuberculosis MenB enzyme; P9WNP5; MenB enzyme assay, absorbance read-out; some hits fall short of the stated cut; inhibition, %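 (about 12 µg/mL by stock and volumes)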; 100,000 tested, 0.43% active;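 active = mean of two replicates above 30%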;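 note: 0% = no compound and 100% = wells with inactive enzyme; the first replicate is given; strong numbers were not always called active; inactives centre near -10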
PV pol inh: inhibitors of poliovirus RNA polymerase binding and polymerization; 150,000 tested, 0.66% active; % elongation, % (compound at 16.7 µg/mL); poliovirus polymerase elongation, fluorescence polarization; stronger effect = lower value; in the data active = % elongation below about 90%; note: some results filed as inactive read as strong as hits
Target sequence (P03300 1749-2209 limits assumed): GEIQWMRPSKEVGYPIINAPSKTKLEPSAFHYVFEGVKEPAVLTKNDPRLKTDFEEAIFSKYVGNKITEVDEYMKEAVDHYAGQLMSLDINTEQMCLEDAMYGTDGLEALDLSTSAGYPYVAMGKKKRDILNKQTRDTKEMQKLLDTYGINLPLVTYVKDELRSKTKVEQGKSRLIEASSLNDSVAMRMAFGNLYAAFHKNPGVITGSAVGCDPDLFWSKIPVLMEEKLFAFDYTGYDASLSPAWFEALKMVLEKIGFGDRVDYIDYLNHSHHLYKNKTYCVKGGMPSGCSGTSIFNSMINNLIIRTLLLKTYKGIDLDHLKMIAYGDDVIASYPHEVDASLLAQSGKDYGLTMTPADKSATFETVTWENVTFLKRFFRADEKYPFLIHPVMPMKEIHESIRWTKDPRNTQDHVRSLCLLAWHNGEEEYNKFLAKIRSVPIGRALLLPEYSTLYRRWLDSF
PV pol inh intensity: also measured in PV pol inh; calls as there; % elongation; measured here: total intensity read-out; formula for this scale not given here;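 total fluorescence in place of polarization; lower means less elongation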
* hit, by the source's call; / = not tested or not shown.

SMILES	MbtI inh	Mtb MenB inh	PV pol inh	PV pol inh intensity
COc1ccc(-c2nsc(NC(=O)CC(C)C)n2)cc1	-9	-2	105	102
O=C1CN(S(=O)(=O)c2cccc(C(=O)O)c2)c2ccccc2N1	-40	4	103	108
CCn1cc2nc(SCC(N)=O)n(CCc3ccccc3)c(=O)c2n1	-32	-4	103	103
NC(=O)C1CCN(C(=S)NC(=O)C2CC2)CC1	-6	-18	112	109
O/N=C1\CCCc2c1[nH]c1ccc(Cl)cc21	30	4	102	104
Cc1onc(-c2c(Cl)cccc2Cl)c1-c1noc(CSc2ccccn2)n1	6	-2	103	102
CCOc1ccc(CN(C)C(=O)C2CCN(S(=O)(=O)c3ccccc3F)CC2)cc1OC	-10	-27	100	104
c1ccc2c(c1)nc(NC1CC1)c1nnnn12	-9	-15	105	105
CCOC(=O)C1=NN(C(=O)c2cccc(OC)c2)C(O)(C(C)(C)C)C1 (stereo unspecified)	-5	-12	100	102
O=C(COc1ccc2c(c1)CCC2)N(Cc1nnc(-c2ccc(Cl)cc2)o1)C1CC1	-8	-31	104	108
NNC(=O)c1csc(Cc2c(Cl)cccc2Cl)n1	0	4	102	101
CN(C)c1ccc(/C=C/C2=Nc3ccccc3SC(C)(C)C2)cc1	-8	-51	100	95
S=C(NCc1ccco1)Nc1ccn(C23CC4CC(CC(C4)C2)C3)n1	-5	-15	99	101
CCn1c(-c2nonc2NC(=O)c2ccccc2)nc2ccccc21	4	-4	100	102
Cc1ccccc1-c1nnc(SCC(=O)N2CCCc3ccccc32)n1C	-9	8	101	100
O=c1ccn(-c2ccc(F)cc2)nc1-c1ccnc(=S)[nH]1	33	-56	104	103
Cc1cccc(NC(=O)C(NC(=O)c2ccc(C34CC5CC(CC(C5)C3)C4)cc2)C(C)C)n1 (stereo unspecified)	-6	9	104	105
Cc1oc(-c2cccc(Cl)c2)nc1CN1CCCC(C(=O)N2CCN(c3cccc(Cl)c3)CC2)C1 (stereo unspecified)	2	-15	100	103
CCOc1ccc(C(C)(C)C)cc1S(=O)(=O)Nc1ccc(Cl)cn1	0	11	103	104
CC(C)CNC(=S)N1CCCC1	-6	-5	104	103
CN(C)C1(CNC(=O)NCC2(N(C)C)CCCCC2)CCCCC1	-4	-5	105	107
O=C(CSc1ccc(Cl)cc1)c1ccco1	61*	/	100	101
CC(=O)OC1(c2ccc(C)cc2)CN2CCC1c1ccccc12 (stereo unspecified)	-2	4	100	102
Cc1ccccc1NC(=O)COC(=O)c1ccc(-c2ccccc2)cc1	-1	/	101	100
CCCCc1ccc(N2C(=O)CS/C2=C(/C#N)S(=O)(=O)c2ccccc2)cc1	25	-12	103	105
Cn1nnnc1SCC(=O)N1CCCc2ccccc21	-7	-28	101	102
CC(C)C(NS(=O)(=O)c1cccs1)C(=O)O (stereo unspecified)	-4	5	101	102
O=C(CN1CCCC1=O)NCCc1ccccc1	-3	32	102	101
O=C1C2=C(Nc3ncnn3C2c2ccccc2)c2ccccc21 (stereo unspecified)	-23	-24	101	101
COc1ccccc1N1C(=O)c2ccc(-c3nc4cc(Cl)ccc4c(=O)o3)cc2C1=O	/	-26	108	109
CCOc1cc(C2c3c(oc4cc(C)cc(C)c4c3=O)C(=O)N2CCCO)ccc1O (stereo unspecified)	0	10	102	104
Cc1cc2cc(CNC(=O)c3ccccc3C(F)(F)F)ccc2[nH]1	-7	-36	100	98
COC(=O)c1cn(CC(N)=O)c2nc(C)ccc2c1=O	16	13	98	105
CC(NC(=O)C1CCCN1C(=O)OCc1ccccc1)c1ccccc1 (stereo unspecified)	-18	3	99	103
O=C1CSC(=O)N1Cc1ccccc1	-4	-12	102	101
O=C(CC12CC3CC(CC(C3)C1)C2)NCc1ccco1	-4	-9	101	103
CCN(CC(=O)NCc1ccc(F)cc1)c1ccc(S(=O)(=O)N(CC)CC)cn1	-11	-3	104	107
O=C(O)CC(NC(=O)c1ccccc1)c1ccccc1 (stereo unspecified)	-5	/	100	102
CCn1c2ccc(Cl)cc2c2cc(Cl)ccc21	5	-6	106	108
CC(=O)N1CCCc2ccc(NC(=O)c3ccccc3)cc21	11	2	99	109

A second format for some results above:
Below each compound: MbtI inh | Mtb MenB inh | PV pol inh | PV pol inh intensity
CCn1c2ccc(Cl)cc2c2cc(Cl)ccc21
    5 | -6 | 106 | 108
O=C1C2=C(Nc3ncnn3C2c2ccccc2)c2ccccc21 (stereo unspecified)
    -23 | -24 | 101 | 101

Carrying on:
SMILES	MbtI inh	Mtb MenB inh	PV pol inh	PV pol inh intensity
CCC(CC)c1nnc(NC(=O)CN2C(=O)C3CC=CCC3C2=O)s1 (stereo unspecified)	5	-8	101	102
O=c1[nH]nc(CSc2ccc(Cl)cc2)n1-c1ccccc1	2	-6	103	106
COc1cc2c(cc1OC)C(c1ccccc1)N(C(=O)COC(=O)C1CC1)CC2 (stereo unspecified)	-3	-32	103	97
Cc1ccc(N/C=C2\C(=O)C3(C)CCC2C3(C)C)cc1C (stereo unspecified)	/	-23	105	105
CN1C(=O)N(C)C(=O)C(CC(=O)N2CCCc3ccccc32)(CC(=O)N2CCCc3ccccc32)C1=O	-10	-1	100	108
Cc1ccc(S(=O)(=O)NC(=O)Nc2cccnc2)cc1	16	-3	103	109
CC1=CSC2=NC(=O)/C(=C\c3cccn3-c3ccccc3)C(=N)N12	11	-62	101	111
CCC(=O)NC1CCN(C(=S)NC)CC1	-4	30	101	103
Cc1ccc(N2C(=O)/C(=C\c3ccc4c(c3)OCO4)N=C2SCC(=O)NCC2CCCO2)cc1 (stereo unspecified)	-30	-180	101	106
CC(=O)NC(CC(=O)N1CCN(c2ccccc2)CC1)c1ccccc1 (stereo unspecified)	3	-23	104	97
Cc1cc(C)cc(C(=O)NC(=S)Nc2ccc3[nH]c(=O)[nH]c3c2)c1	1	-26	99	102
NS(=O)(=O)c1ccc(Cl)c(C(=O)Nc2ccc(Cl)cc2)c1	-5	12	101	101
CCNc1ncnc2scc(-c3ccccc3)c12	2	-13	107	111
CCCNS(=O)(=O)c1ccccc1	-8	-32	104	103
CCc1ccccc1N(C)S(=O)(=O)c1c(C)noc1/C=C/N(C)C	7	12	101	92
COc1cccc(C=Nc2cnn(C)c2C(N)=O)c1O	-7	-15	99	97
CCCCCCCCCCCCCCCCOP(=O)([O-])OCC[N+](C)(C)C	-15	-2	101	102
CC(C)(C)NC(=O)c1cc(NC(=O)C(F)(F)F)cc(NC(=O)C(F)(F)F)c1	/	8	103	114
COc1cc2c(C#N)c(N3CCCCC3)nc3c2c(n1)NC1(N3)C(=O)Nc2ccccc21 (stereo unspecified)	-31	-50	110	37
Nc1ccnc(C(=O)O)c1	22	16	98	102

Copied from the entries so far, 22 compounds:
SMILES	MbtI inh	Mtb MenB inh	PV pol inh	PV pol inh intensity
CCn1c2ccc(Cl)cc2c2cc(Cl)ccc21	5	-6	106	108
CC(=O)N1CCCc2ccc(NC(=O)c3ccccc3)cc21	11	2	99	109
CCC(CC)c1nnc(NC(=O)CN2C(=O)C3CC=CCC3C2=O)s1 (stereo unspecified)	5	-8	101	102
O=c1[nH]nc(CSc2ccc(Cl)cc2)n1-c1ccccc1	2	-6	103	106
COc1cc2c(cc1OC)C(c1ccccc1)N(C(=O)COC(=O)C1CC1)CC2 (stereo unspecified)	-3	-32	103	97
Cc1ccc(N/C=C2\C(=O)C3(C)CCC2C3(C)C)cc1C (stereo unspecified)	/	-23	105	105
CN1C(=O)N(C)C(=O)C(CC(=O)N2CCCc3ccccc32)(CC(=O)N2CCCc3ccccc32)C1=O	-10	-1	100	108
Cc1ccc(S(=O)(=O)NC(=O)Nc2cccnc2)cc1	16	-3	103	109
CC1=CSC2=NC(=O)/C(=C\c3cccn3-c3ccccc3)C(=N)N12	11	-62	101	111
CCC(=O)NC1CCN(C(=S)NC)CC1	-4	30	101	103
Cc1ccc(N2C(=O)/C(=C\c3ccc4c(c3)OCO4)N=C2SCC(=O)NCC2CCCO2)cc1 (stereo unspecified)	-30	-180	101	106
CC(=O)NC(CC(=O)N1CCN(c2ccccc2)CC1)c1ccccc1 (stereo unspecified)	3	-23	104	97
Cc1cc(C)cc(C(=O)NC(=S)Nc2ccc3[nH]c(=O)[nH]c3c2)c1	1	-26	99	102
NS(=O)(=O)c1ccc(Cl)c(C(=O)Nc2ccc(Cl)cc2)c1	-5	12	101	101
CCNc1ncnc2scc(-c3ccccc3)c12	2	-13	107	111
CCCNS(=O)(=O)c1ccccc1	-8	-32	104	103
CCc1ccccc1N(C)S(=O)(=O)c1c(C)noc1/C=C/N(C)C	7	12	101	92
COc1cccc(C=Nc2cnn(C)c2C(N)=O)c1O	-7	-15	99	97
CCCCCCCCCCCCCCCCOP(=O)([O-])OCC[N+](C)(C)C	-15	-2	101	102
CC(C)(C)NC(=O)c1cc(NC(=O)C(F)(F)F)cc(NC(=O)C(F)(F)F)c1	/	8	103	114
COc1cc2c(C#N)c(N3CCCCC3)nc3c2c(n1)NC1(N3)C(=O)Nc2ccccc21 (stereo unspecified)	-31	-50	110	37
Nc1ccnc(C(=O)O)c1	22	16	98	102

More results follow:
SMILES	MbtI inh	Mtb MenB inh	PV pol inh	PV pol inh intensity
CCC1CCCCN1C1CC(=O)N(c2ccc(NC(C)=O)cc2)C1=O (stereo unspecified)	11	11	102	103
CC1=CC(=C(C#N)C#N)CC(C)(C)C1	10	-4	101	117
O=C(c1ccccc1)C1CCN(C(=O)Nc2ccccc2)CC1	5	-18	104	104
C#CCn1c(O)c(N=NC(=O)c2ccccc2-n2cccc2)c2ccccc21	15	-80	103	101
Cc1cccc(C(=O)Sc2cccccc2=O)c1	-6	-22	101	96
O=C1CCCC(O)=C1C1(O)C(=O)c2ccccc2C1=O	-5	-2	79*	76*
COC(=O)c1ccc(OC(=O)CCc2nc3cc(S(=O)(=O)N4CCOCC4)ccc3n2C)cc1	5	-5	111	129
Cc1cc(OCCCC(=O)O)cc(C)c1Cl	-7	-8	100	101
CN1C(=O)NC(=O)/C(=C\C=C\c2ccccc2)C1=O	84*	-40	102	107
COc1cc(C(=O)N2CCN(c3ccc(NCc4ccccc4)nn3)CC2)cc(OC)c1OC	-28	-7	104	103
O=C(c1cc2ccccc2oc1=O)N(Cc1ccc2c(c1)OCO2)CC1CCCO1 (stereo unspecified)	0	-25	102	101
Nc1nc2ccccc2n1C(=O)c1ccco1	38	9	101	103
CN(CC(=O)NCC1CCCCC1)S(=O)(=O)c1ccc(F)cc1	-15	9	101	108
C=C(C)CN(CC)C(=O)Cn1c(NCc2ccccc2)nc2ccccc21	10	-24	100	97
CCC1=C(c2ccc(C)cc2)S(=O)(=O)NC1=NCC(=O)NC1CC1	-19	-33	103	104
COc1cc(OC)c(C(=O)OCC(=O)c2c[nH]c3ccccc23)cc1OC	-2	-15	102	116
Cc1ccc(C(=O)N[C@@H](C)c2nc3ccccc3[nH]2)cc1	-12	-19	104	111
Nc1nnc2c(n1)-c1ccccc1C2=O	8	-1	101	102
O=c1c(Cl)c(Cl)cnn1CN1CCN(Cc2ccc3c(c2)OCO3)CC1	-3	-13	100	101
CN(C)c1ccc(-c2nnc(-c3ccc(S(=O)(=O)C(F)F)cc3)o2)cc1	-21	16	84	125
CCC(CO)Nc1ncnc2c1cnn2-c1ccc(Cl)cc1 (stereo unspecified)	103	-5	98	106
C=CCOc1ccc(CN(C)Cc2cccc(S(=O)(=O)N(C)C)c2)cc1	3	-7	104	98
O=C(C(Cc1ccccc1)N1Cc2ccccc2C1=O)N1CCNCC1 (stereo unspecified)	-1	2	98	104
N#CC(NC(=O)c1ccccc1Cl)c1ccc(Cl)cc1 (stereo unspecified)	/	-12	101	94
Cc1nc(-c2c[nH]c(C(=O)O)c2)cs1	28	-15	93	98
OC(c1ccccc1)C(O)(c1ccccc1)c1ccccc1 (stereo unspecified)	/	-6	103	105
CC(C)(C)c1csc(NC(=O)CSC2=NCCS2)n1	1	-15	100	101
Cc1cccn2c(=O)c(C=C(C#N)C#N)c(N3CCCC3)nc12	4	-12	105	108
O=C(c1ncn[nH]1)N(Cc1cc2ccccc2[nH]c1=O)c1ccccc1	57	-13	99	100
COc1ccc(C(=O)Nc2cccc(-c3nc4ccccc4s3)c2)cc1	/	-26	107	110
CCOC(=O)c1c(NC(=O)NCc2ccccc2)sc2c1CCC2	6	-75	103	104
CC(CCc1ccccc1)NCc1c(C(=O)O)[nH]c2ccccc12 (stereo unspecified)	106	-16	103	105
CCCn1c(CCC(=O)NCCc2ccc(OC)cc2OC)nc2cccnc21	3	-16	103	102
O=C(O)c1cnn(-c2ccc(Cl)cc2)c1C1CCNCC1	12	-7	99	103
COC(=O)C(=NNc1ccc(SC(F)(F)F)cc1)C(=O)OC	16	-45	100	108
O=C(CN1CCC(n2cnc3cc(F)ccc32)CC1)NCc1ccc(F)cc1	-22	-35	101	105
CCOc1cccc(NC(=O)CC#N)c1	/	-14	118	124
CCc1ccc(NC(=O)C(CC)Sc2nc3ccsc3c(=O)n2C2CC2)cc1 (stereo unspecified)	9	-24	103	107
Oc1[nH]c2ccccc2c1C=NC1CCCC1	5	7	100	103
C1C2C3C4OC5C3C1C1C2C4C51 (stereo unspecified)	-5	-23	106	107
